Screening results from PubChem BioAssay.
TRPML1 blocker – blocks the human TRPML1 channel; 0.02% of 390,000 active; Q9GZU1; TRPML1-inducible cells, Ca2+ dye fluorescence, FDSS; stronger effect = lower value; inhibition of EC80 agonist-evoked calcium signal; activity change, negative = inhibition, % (concentration not given with the values); in the data active means activity change below about -50%; inconclusive means about -30% to -50%; inactive means above about -30%;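 note: stimulus is agonist 54-4 at its EC80 concentration; % is set by controls: 0 for no effect and ±100 for the full control effect; compound concentration not given in the record; the text of the record puts the active cut at -80%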
Target sequence (Q9GZU1 whole entry, looked up): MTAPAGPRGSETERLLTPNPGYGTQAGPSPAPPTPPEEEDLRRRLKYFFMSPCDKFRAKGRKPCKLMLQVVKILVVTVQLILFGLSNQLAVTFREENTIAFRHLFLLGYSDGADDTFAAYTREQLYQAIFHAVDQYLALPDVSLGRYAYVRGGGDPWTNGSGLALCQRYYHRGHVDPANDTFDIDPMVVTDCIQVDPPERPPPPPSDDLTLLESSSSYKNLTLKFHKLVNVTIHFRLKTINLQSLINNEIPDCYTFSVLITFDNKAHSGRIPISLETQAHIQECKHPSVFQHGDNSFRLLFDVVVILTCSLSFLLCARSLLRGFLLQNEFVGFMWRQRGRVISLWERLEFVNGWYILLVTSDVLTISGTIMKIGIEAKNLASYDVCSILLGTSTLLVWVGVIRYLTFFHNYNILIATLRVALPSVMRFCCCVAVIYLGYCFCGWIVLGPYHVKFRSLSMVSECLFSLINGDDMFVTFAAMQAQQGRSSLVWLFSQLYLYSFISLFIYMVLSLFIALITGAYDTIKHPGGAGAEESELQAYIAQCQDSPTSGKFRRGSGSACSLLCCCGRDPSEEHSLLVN
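Tet-induced TRPML1-DL cells loaded with Ca8 no-wash calcium dye were read kinetically on FDSS. Compound addition was followed by EC80 agonist 54-4 (4 uM final); inhibition was read over 110 s.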
D2 ag – activates the human D2 dopamine receptor; DiscoveRx PathHunter D2 beta-arrestin, luminescence, 90 min; 100% = 57 uM dopamine signal; activation, % (no concentration beside the values); 0.084% of 360,000 active; P14416; in the data active = activation above about 40%; inconclusive = about 15% to 40%; inactive = below about 15%; note: compound concentration not given in the record; the text of the record calls up to 30% inactive
Target sequence (P14416 whole entry, looked up): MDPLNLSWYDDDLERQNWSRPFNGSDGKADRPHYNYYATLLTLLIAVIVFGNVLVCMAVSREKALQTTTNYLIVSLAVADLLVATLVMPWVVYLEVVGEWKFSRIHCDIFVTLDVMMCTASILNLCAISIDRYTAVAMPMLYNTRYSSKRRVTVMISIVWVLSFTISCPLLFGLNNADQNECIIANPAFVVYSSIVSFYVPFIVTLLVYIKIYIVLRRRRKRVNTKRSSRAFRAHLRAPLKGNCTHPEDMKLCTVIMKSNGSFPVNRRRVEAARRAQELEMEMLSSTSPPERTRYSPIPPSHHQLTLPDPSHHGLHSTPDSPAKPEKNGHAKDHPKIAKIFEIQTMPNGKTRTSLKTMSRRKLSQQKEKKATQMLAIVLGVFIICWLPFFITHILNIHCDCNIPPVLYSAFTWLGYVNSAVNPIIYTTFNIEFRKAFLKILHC
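Agonist mode: compounds alone added to overnight-plated D2 PathHunter cells for 90 min at 37 C, with 57 uM final dopamine (EC100) defining full response. Beta-arrestin recruitment detected by chemiluminescent reagent, read after 1 h at ambient temperature.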
PINK1 modulator – PINK1 expression modulation. 0.2% of 410,000 active. Potency, µM (top dose mostly 76.6 µM), for the others: at the highest dose activation (PINK1 increase), hits mostly activators. PINK1 immunofluorescence, high-content cytometry, 24 h; active = well fitted activation curve with a large enough effect; inconclusive = small, poorly fitted or top-dose-only effect; inactive = flat fitted curve, though single readings scatter; cell line not stated here;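 note: potency is the fitted concentration of half-maximal effect; % of control where 0% means no effect; nearly all actives have a fitted effect of over 65% in size; a mitochondrial uncoupler was the plate control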
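Measures PINK1 amount and localization on or inside mitochondria by immunofluorescence. Stable cells get compounds at 5 concentrations for 24 hours before fixation and staining; CCCP controls included.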
CtBP-E1A blk – blocks the CtBP interaction with E1A; AlphaScreen GST-E1A/His-CtBP binding, 1536-well; stronger effect = lower value; control for the full effect not named in the record; activity change, % (concentration not given with the values); 0.49% of 340,000 active; AID 651724; in the data active means activity change below about -65%; inconclusive means about -30% to -65%; inactive means above about -30%; note: % is set by controls: 0 for no effect and ±100 for the full control effect
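GST-E1A and His-tagged CtBP (125 nM each as 5X stock) were preincubated with pin-transferred compound for 2 h at 37 °C in the dark, then glutathione donor and nickel acceptor beads were added for 1 h before AlphaScreen reading.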
Six1-Eya2 inh – blocks human Six1 binding to Eya2; Q15475+O00167; AlphaScreen GST-Six1/His-Eya2 binding, biochemical; stronger effect = lower value; control for the full effect not named in the record; activity change, % (concentration not given with the values); 0.56% of 360,000 active; AID 651725; in the data active = activity change below about -65%; inconclusive = about -30% to -65%; inactive = above about -30%; note: % is set by controls: 0 for no effect and ±100 for the full control effect
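Homogeneous AlphaScreen proximity assay pairing GST-Six1 with His-tagged Eya2 (added as 5X mix: 250 nM and 500 nM) in 50 mM Tris pH 8.0, 300 mM NaCl, 1 mM TCEP. Glutathione donor and nickel acceptor beads; 1 h, 37 °C, dark.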
TRPML1 ag – human mucolipin-1 channel agonism; TRPML1-expressing cells, Ca2+ dye fluorescence, FDSS; host cell line not named in the record; reference of the full effect not given here; 0.12% of 410,000 active; Q9GZU1; activation, % (concentration not given with the values); in the data active = activation above about 50%; inconclusive = about 30% to 50%; inactive = below about 30%; note: 0% is about no effect; the text of the record puts the active cut at 80%
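Tetracycline-induced TRPML1-DL cells are seeded and incubated overnight before loading with a no-wash Ca2+ dye and quencher. Agonist activity is taken from the 110 s fluorescence read following compound pin-transfer on an FDSS, before EC80 54-4 challenge.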
* marks the source's active call; other numbers are inactive results; ? = inconclusive; · = not tested or not shown; & = joins results of further samples; [ ] = remark or other dose.

SMILES,TRPML1 blocker,D2 ag,PINK1 modulator,CtBP-E1A blk,Six1-Eya2 inh,TRPML1 ag
CCOC(=O)C1CCCN(S(=O)(=O)c2ccc(F)c(C(=O)Nc3ccc(F)c(F)c3)c2)C1 (centres undefined),21&6,1.9,0.7%,-4,0,1.8&2.2
Cc1ccc(C2(c3ccc(C)cc3)NC(=O)N(Cc3c(C)noc3C)C2=O)cc1,5,-1.9,24%,-1,-5,-0.3
Cc1cc(C)cc(-n2ncc3c2CCCC3NC(=O)C2CCC2)c1 (centres undefined),-18,1.8,2.4%,2,1,1.1
Nc1nc(-c2ccc(Oc3ccccc3)cc2)c(CC(=O)O)s1,17,-2.6,-0.3%,6,-17,-0.5
CNC(=S)N(CCc1c(C)[nH]c2ccc(OC)cc12)Cc1ccco1,-3,-3.5,-0.1%,·,-11,2.1
Cc1cc(-c2ccccc2)nc(N(C)NC(=O)c2cccc(C(F)(F)F)c2)c1S(C)(=O)=O,2,-1.3,5.0%,9,1,-0.6
Cc1cccc(Cn2c(CN3CCN(Cc4ccccc4)CC3)nc3c2c(=O)[nH]c(=O)n3C)c1,-5,-2.9,-1.0%,5,-3,-0.3
CC(C)(C)c1cnnn1-c1ccc(C=O)cc1,4,-1.1,-1.9%[38.3 µM],7,-1,0.3
CCc1ccccc1N(CC(=O)NC1CCCCC1)C(=O)CNC(=O)c1ccco1,8,-7.6,0.5%,0,-19,-0.6
CC1=C(C(=O)OC(C)C)C(c2cccnc2)C2=C(CCCC2=O)N1 (centres undefined),-2,-1.2,·,-4,3,0.0
CCCCN1CC(=O)N2[C@@H]3c4cc(Br)ccc4OC[C@@H]3[C@H](C(=O)OCC)[C@]2(C)C1=O,-12,-0.1,1.9%,-24,2,0.1
CCOC(=O)N1CCN(c2nc(-c3ccco3)cc(C(F)(F)F)n2)CC1,4,-3.2,?,1,-2,0.0
COc1ccc(C(C)=O)cc1CN1C(=O)C(Cc2ccccc2)ON=C1c1ncccc1C (centres undefined),·,1.7,0.3%,2,-8,0.7
CCNc1oc(/C=C/c2ccc(OCC)cc2)nc1C#N,15,-2.0,4.9%,-13,0,2.2
CC1Cc2ccccc2N1C(=O)COC(=O)Cn1cnc2ccccc2c1=O (centres undefined),1,-5.9,-0.9%,5,0,-0.2
CCOC(=O)N1CCN(c2ccc(C(C)=O)cc2F)CC1,0,-0.3,-1.7%,2,4,-0.9
C=CCN1C(=O)/C(=C\c2ccc(Cl)cc2)N=C1SCC(=O)NC1CCCCC1,8,-2.1,2.2%,3,-7,-0.5
Cc1cccc(N2CCN(C(=S)c3ccc4c(c3)OCO4)CC2)c1,-10,-5.5,3.0%,?,-29,1.6
Cc1cccc(-n2nnnc2SCC(=O)N(CC(C)C)c2c(N)n(CC(C)C)c(=O)[nH]c2=O)c1,-7,-3.2,-1.7%,11,-2,-0.8
Cc1ccc(NC(=O)c2ccccc2)cc1OC(=O)c1ccccc1,-8,0.9,0.6%[38.3 µM],-16,2,3.1
COC(=O)c1scc(C)c1NC(=O)Cc1ccccc1,0,-2.5,5.2%[38.3 µM],4,3,-0.4
Cc1ccc(N(CC(=O)NC2CCCCC2)C(=O)CNC(=O)c2ccco2)cc1F,-8,-2.7,-0.9%,0,4,0.0
Cc1[nH]c2ccc(-c3nnc(SCC(=O)c4ccccc4F)o3)cc2c1C,1,-7.2,-2.3%,-9,-2,-0.6
COc1ccc(/C=N\NC(=O)c2c(C)nc3ccc(Br)cn23)cc1,-6,0.2,5.9%,·,10,0.2
COCCNC(=O)C1(C)CCCN(C(=O)Cc2ccc3ccccc3c2)C1 (centres undefined),·,-2.6,0.7%,2,3,-0.8
COc1ccc(NC(=O)c2cccn2-c2nnc(N3CCCCC3)s2)c(OC)c1,5,·,-1.4%,·,·,1.3
COC(=O)c1cc(OCC(=O)NC2CCCc3ccccc32)cc(C(=O)OC)c1 (centres undefined),11,-1.1,-0.9%,0,-18,4.4
COc1cc(C(C[N+](=O)[O-])c2c(C)[nH]c3ccccc23)cc(OC)c1OC (centres undefined),-1,0.4,14%[38.3 µM],-9,-6,-0.4
COC(=O)c1sccc1NC(=O)CSc1cc(Cl)ccc1Cl,-7,-1.4,-0.8%,39,35,4.8
O=C(NCCCn1ccnc1)Nc1cccc(Cl)c1,-4,0.3,1.7%,-23,?,-0.5
O=C(c1ccccc1)N1CCN(Cc2ccccc2Br)CC1,-8,-3.8,-1.9%,-2,-1,5.0
CCN1C(=NCCOC)N[C@@H](c2cccs2)C(C(=O)OC)=C1C,1,-4.0,0.0%,2,3,-0.3
Cc1cccc(NC(=O)c2cc(N3C(=O)CCC3=O)ccc2Cl)n1,0,-0.8,2.1%[38.3 µM],11,3,-0.5
COC(=O)[C@H](Cc1ccccc1)NC(=O)N1CCN(c2ccccc2)CC1,10,-1.3,2.0%,4,-7,0.3
O=C(NCC1CC1)c1onc(CSc2ccccc2)c1C(=O)NCC1CC1,46,0.5,1.7%,11,5,3.7
CCOC(=O)c1cccc(NC(=O)CSc2ncc3c(n2)-c2ccccc2N(C)S3(=O)=O)c1,17,·,1.8%,·,·,0.5
CC(C(=O)NC1CCCC1)N(C(=O)c1ccc(-c2ccccc2)[nH]1)c1ccccc1F (centres undefined),0,-6.0,0.9%[38.3 µM],-24,-22,1.7
Cn1/c(=N/NC(=O)c2ccccc2F)sc2ccccc21,3,1.2,-1.0%,-8,-5,0.2
COc1ccc(NC(=O)C(NS(=O)(=O)c2ccc3c(c2)CCCN3C(C)=O)C(C)C)c(OC)c1 (centres undefined),23,-2.8,3.2%[38.3 µM],-1,3,0.6
COCCNc1nc(Nc2ccc(C#N)cc2)c2sccc2n1,·,5.5,4.1%,-28,-27,-0.7
CC(=O)Nc1ccc(NC(=O)C2CC(=O)Nc3ncnn32)cc1 (centres undefined),42,0.4,0.1%,9,-4,0.3
O=c1cc(N2CCCCC2)[nH]c(=O)n1C1CCCCC1,-8,-7.0,-0.1%,6,8,2.3
Cn1c(N)c(N=O)c(=O)n(C)c1=O,-10,2.0,0.6%,-18,1,0.2
CC1(C(=O)NCc2ccc(Cl)cc2)CCN1C(=O)Cc1cccs1 (centres undefined),·,-4.0,0.2%,0,18,0.2
Cc1ccc(C(=O)C(OC(=O)CNS(=O)(=O)c2ccccc2)c2ccccc2)cc1 (centres undefined),-4,-2.0,-2.2%,9,-1,0.3
CCn1cc(C(=O)NCc2ccco2)c2cc(OC)c(OC)cc2c1=O,19,-2.4,-0.1%,-10,-6,-0.4
CC(NC(=O)CCC(=O)c1ccccc1)c1ccc(F)cc1 (centres undefined),-13,-2.5,-2.8%,3,8,-0.1
COc1cc(C(O)P(=O)(OCCC(C)C)c2ccc(N(C)C)cc2)cc(OC)c1OC (centres undefined),-5,-2.8,-1.1%,-3,-4,-0.2
COc1cccc(CNC(=O)c2cc3oc4ccccc4c3n2C)c1OC,9,0.8,1.5%,-6,-10,0.9
O=C(Nc1cc2c3c(c1)CC(=O)N3CCC2)c1c(F)cccc1F,-1,3.2,2.1%,-12,-14,-0.3

Remaining list, next part
SMILES,TRPML1 blocker,D2 ag,PINK1 modulator,CtBP-E1A blk,Six1-Eya2 inh,TRPML1 ag
CCCS(=O)(=O)N1CCCC(C(=O)NCCCN(C)Cc2ccccc2)C1 (centres undefined),-3,-1.6,-0.4%,2,12,-0.7
Cc1nc2nc(C)c(NS(=O)(=O)c3cccs3)c(=O)n2[nH]1,-5,-3.7,-0.5%,8,-3,0.4
CN(C)CCNC(=O)c1cccc(NS(=O)(=O)c2ccc(Cl)c(Cl)c2)c1,4,-4.3,1.0%,-10,1,0.3
CN(Cc1nc2ccccc2c(=O)[nH]1)c1ccccc1,?,2.7,?,-1,-1,1.2
Nc1nc(-c2ccc(-c3ccccc3)cc2)cs1,-1,-4.5,-0.5%,-22,-19,0.6
c1ccc(CNc2ccc(CNc3ncn[nH]3)cc2)cc1,9,-2.0,-7.7%[38.3 µM],-4,-4,-0.8
COc1ccc(-c2cc(C(=O)N(C)CC(=O)Nc3ccccc3Cl)c3ccccc3n2)cc1OC,2,2.9,-2.0%,1,2,0.2
O=C(O)c1ccc2c(c1)C(=O)N(N1C(=O)c3ccccc3C1=O)C2=O,4,-8.5,-0.5%,3,4,-1.1
O=C(NC(=S)Nc1ccc(S(=O)(=O)Nc2nccs2)cc1)c1ccc(F)cc1,2,-4.3,-0.1%,-24,0,0.4
O=C(Cc1cccs1)N/N=C/C=C\c1ccccc1[N+](=O)[O-],-5,0.3,-0.5%,-2,-4,0.0
CC(=O)Oc1ccc(C(=O)Nc2ccccc2C(=O)N2CCCC2)cc1,1,-0.7,1.1%,-27,-10,0.6
COc1ccccc1N1CCN(C(=O)CSc2ncccc2-c2nc3ccccc3[nH]2)CC1,-11,-0.4,?,0,-2,0.6
COc1cc(/C=C/C(=O)OCC(=O)NC2CC2)cc(OC)c1OC,9,9.6,3.2%,·,-3,-0.5
COc1ccc(OC)c(/C=N/NC(=O)CSc2nnc(C)n2-c2ccccc2)c1,-4,-2.7,1.9%,-12,4,1.3
COc1ccc(C(=O)NCC(=O)N2CCC(C)CC2)cc1OC,4,0.9,-1.0%,-3,6,0.6
CC(C)(C)OC(=O)NCCCCCc1nnc(SCc2cccc(F)c2)o1,19,-3.5,1.3%,·,11,-1.0
COC(=O)Cc1c(C(=O)OC)nnn1-c1ccc(OC(F)(F)F)cc1,-2,-2.6,0.0%,-10,-6,-0.5
Cc1ccc(NC(=S)N2CCC(NC(=O)c3ccccc3)CC2)cc1,4,-0.7,1.8%,3,-7,-0.3
O=C(Nc1ccc2c(c1)OCO2)C1Cc2c(-c3ccncc3)ccnc2O1 (centres undefined),16,-3.8,0.2%,-1,2,0.1
CS(=O)(=O)N(CC(=O)N1CCN(c2cccc(Cl)c2)CC1)C1CCCCC1,22,-1.8,0.1%,2,4,0.5
COc1ccc(C2C(C(=O)OC3CCCCC3)=C(C)Nc3nnnn32)c(OC)c1OC (centres undefined),16,-0.2,8.2%,-4,-2,1.1
Cc1ccccc1CNC(=O)c1c(C)oc2c1C1=NCCN1C=N2,-7,·,-1.7%,·,·,0.2
COC(=O)c1nc(NC2=NCCCCC2)n[nH]1,-3,-1.0,0.1%,1,1,-0.5

Ordered by SMILES length (rising): three of the compounds above.
SMILES,TRPML1 blocker,D2 ag,PINK1 modulator,CtBP-E1A blk,Six1-Eya2 inh,TRPML1 ag
c1ccc(CNc2ccc(CNc3ncn[nH]3)cc2)cc1,9,-2.0,-7.7%[38.3 µM],-4,-4,-0.8
O=C(O)c1ccc2c(c1)C(=O)N(N1C(=O)c3ccccc3C1=O)C2=O,4,-8.5,-0.5%,3,4,-1.1
COc1ccccc1N1CCN(C(=O)CSc2ncccc2-c2nc3ccccc3[nH]2)CC1,-11,-0.4,?,0,-2,0.6
